Screening results deposited in PubChem BioAssay by Johns Hopkins Ion Channel Center.
KCNQ2 enhance – potentiators of rat KCNQ2 potassium channel; B-score at 10 µM; Potassium voltage-gated channel subfamily KQT member 2 (Rattus norvegicus), O88943; CHO-K1 KCNQ2, FluxOR thallium flux fluorescence; stronger effect = higher value; AID 2239, 2010; 0.54% of 310,000 active;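 active = fluorescence ratio B-score at least 3 SD of library B-scores, with initial fluorescence B-score within 3 SD, cut at about 5.3 in these data; same plate scores as AID 2156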;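 also: B-score of peak minus minimum over baseline fluorescence ratio after K+ and Tl+ stimulus; positive B-score means potentiation of KCNQ2 with more thallium influx and brighter signal; only the inactives scoring about 0 or higher are listed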
Target sequence (O88943 whole entry, looked up): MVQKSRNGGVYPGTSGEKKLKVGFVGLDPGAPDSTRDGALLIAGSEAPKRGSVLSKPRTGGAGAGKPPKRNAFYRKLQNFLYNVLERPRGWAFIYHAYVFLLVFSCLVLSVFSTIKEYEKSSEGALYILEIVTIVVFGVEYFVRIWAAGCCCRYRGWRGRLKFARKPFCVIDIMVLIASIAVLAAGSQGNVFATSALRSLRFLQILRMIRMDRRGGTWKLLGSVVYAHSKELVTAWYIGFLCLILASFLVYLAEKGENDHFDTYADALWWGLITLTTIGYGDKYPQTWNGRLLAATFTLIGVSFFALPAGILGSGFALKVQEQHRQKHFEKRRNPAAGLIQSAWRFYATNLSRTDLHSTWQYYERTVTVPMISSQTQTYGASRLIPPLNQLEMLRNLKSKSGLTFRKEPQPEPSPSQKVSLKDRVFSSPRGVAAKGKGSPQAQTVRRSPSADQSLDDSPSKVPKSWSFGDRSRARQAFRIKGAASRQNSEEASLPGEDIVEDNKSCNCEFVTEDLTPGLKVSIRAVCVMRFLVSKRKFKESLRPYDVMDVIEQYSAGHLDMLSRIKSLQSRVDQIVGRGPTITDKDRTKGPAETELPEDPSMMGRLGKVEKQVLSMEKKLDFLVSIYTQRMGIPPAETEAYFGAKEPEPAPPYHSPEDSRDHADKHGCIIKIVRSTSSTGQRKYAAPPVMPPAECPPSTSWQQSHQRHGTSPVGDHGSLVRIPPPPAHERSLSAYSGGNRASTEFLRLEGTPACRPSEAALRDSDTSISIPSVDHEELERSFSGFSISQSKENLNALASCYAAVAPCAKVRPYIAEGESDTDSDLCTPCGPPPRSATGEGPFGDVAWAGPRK
KCNQ2 enhance baseline – second read-out of KCNQ2 enhance, no call of its own (marks repeat the call); B-score; compound at 10 µM; measured here: initial fluorescence intensity artifact check;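 brightness before thallium and not channel activity; 0 = typical well and far values either way flag optical interference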
Numbers without * were called inactive; · = not tested or not shown. Only part of the results is shown (hit frequency here may not be typical).

Second line of a record: KCNQ2 enhance, KCNQ2 enhance baseline
COc1cc(NC(=O)C2CCCCC2)c(OC)cc1NC(=O)c1ccccc1
  0.03, 1.43
NC(=O)C(F)(F)C12OC3C4C5CC(C6C5C3C61)C42 (centres undefined)
  1.12, 0.34
O=C(COC(=O)c1ccc2[nH]c3c(c2c1)CCCC3)Nc1ccccc1
  0.24, 1.03
CC1=C(c2ccc(C)cc2)[N+](=O)C(C)(C)N1[O-]
  0.68, 0.72
CCCn1c(=O)c(C(=O)NCCc2ccc(Cl)cc2)c(O)c2ccccc21
  -5.56, ·
Cc1ccc(C(=O)NCCNC(=O)c2cccnc2)cc1
  0.34, 0.5
CCCCC(=O)Nc1ccc(F)c(Cl)c1
  1.4, -1.36
COc1cccc(NC(=O)Nc2ccc3c(c2)CCC3)c1
  1.56, 0.58
COc1cc(C2C(C#N)=C(N)N(N(C)C)C3=C2C(=O)CCC3)cc(OC)c1OC (centres undefined)
  0.39, -1.5
CCN1CC=C2C(C#N)=C(N)C(C#N)(C#N)C(c3cc(Cl)ccc3Cl)C2C1 (centres undefined)
  0.06, 10.7
CCc1cc(-c2n[nH]c(CCC(=O)O)c2-c2nc3ccccc3n2C)c(O)cc1O
  0.72, -0.67
CSc1ccccc1C(=O)C1CCCN(C(=O)c2csnn2)C1 (centres undefined)
  0.15, -0.97
O=C(c1cc(COc2ccc(F)cc2F)on1)N1CCSCC1
  0.51, 0.65
CN1CC(=O)N(CCOc2ccccc2)C1=O
  0.1, -0.19
CCSc1nnc(NC(=O)Cn2cnc3c2c(=O)n(C)c(=O)n3C)s1
  0.18, -0.27
CC(=O)Nc1cccc(N2C(=O)CC(Cc3ccccc3)C2=O)c1 (centres undefined)
  0.04, -0.68
CCCCC(=O)NC(=S)Nc1ccccc1C(=O)Nc1ccccc1
  0.01, -0.39
O=C(Nc1ccc2c(c1)OCCO2)NC1CCCCC1
  1.73, 1.79
CC1=C(c2ccc(C(C)C)cc2)S(=O)(=O)N=C1N1CCN(C(=O)c2ccco2)CC1
  1.4, 0.45
COc1cc(C2C(C#N)=C(C)NC3=C2C(=O)CC(C)(C)C3)cc(OC)c1O (centres undefined)
  0.47, 0.02
CCN(CC)CCCNC(=O)c1sc2ncn(CC(=O)Nc3ccc(C)c(Cl)c3)c(=O)c2c1C
  1.07, -1.29
Cc1cc(C(=O)N2CCN(c3ccccc3)CC2)no1
  0.19, -0.79
COc1ccc(C(=O)N(CCCO)C(C)C(=O)NC2CCCCC2)cc1OC (centres undefined)
  1.14, 2.52
COc1cc(NC(=O)C(C)Oc2ccccc2)ccc1NC(=O)COc1ccccc1 (centres undefined)
  0.92, 0.02
S=C(Nc1ccccc1)N1CCCCCCC1
  1.29, 0
COc1ccc(S(=O)(=O)N2CC(O)CC2C(=O)OCC(=O)Nc2ccc(Cl)cn2)cc1 (centres undefined)
  0.06, -2.33
COc1cccc2c1OCC(C(=O)O)C2 (centres undefined)
  0.93, 0
CC(C)Cc1nc(SCC(=O)N2CCOCC2)c2c(=O)n(C)c(=O)n(C)c2n1
  3.23, -0.6
O=C(Nc1ccc(F)c(Cl)c1)c1cncs1
  0.44, -3.64
COc1ccc(N2CC(C(=O)Nc3nnc(C4CCCCC4)s3)CC2=O)cc1 (centres undefined)
  1, 1.47

Of the compounds above, 3 contain a cyano group:
Second line of a record: KCNQ2 enhance, KCNQ2 enhance baseline
COc1cc(C2C(C#N)=C(N)N(N(C)C)C3=C2C(=O)CCC3)cc(OC)c1OC (centres undefined)
  0.39, -1.5
CCN1CC=C2C(C#N)=C(N)C(C#N)(C#N)C(c3cc(Cl)ccc3Cl)C2C1 (centres undefined)
  0.06, 10.7
COc1cc(C2C(C#N)=C(C)NC3=C2C(=O)CC(C)(C)C3)cc(OC)c1O (centres undefined)
  0.47, 0.02

(listing goes on)
Second line of a record: KCNQ2 enhance, KCNQ2 enhance baseline
COCCCNC(=O)C1CCN(C(=O)c2oc3cc4sc(N(C)C)nc4cc3c2C)CC1
  0.69, -0.02
Cc1ccc2cc(CN(CCCN(C)C)C(=O)NCc3ccccc3)c(=O)[nH]c2c1C
  0.33, 0.29
CC(=O)c1ccc(NC(=O)N2CCc3ccccc3C2)cc1
  2.15, -1.08
O=c1cc(CN2CCN(S(=O)(=O)c3ccc4c(c3)OCCO4)CC2)c2ccc(O)cc2o1
  -5.59, ·
NS(=O)(=O)c1ccc(CCNC(=O)C2CCN(S(=O)(=O)c3ccccc3)CC2)cc1
  0.41, 0.08
O=C(/C=C/c1ccc(Cl)cc1)NC(=S)Nc1ccc(N2CCOCC2)c(Cl)c1
  0.51, -0.06
Cc1ccc2c(c1)CCCN2C(=O)c1c(C)noc1C
  0.97, 1.62
Cc1ccc(S(=O)(=O)c2nc(-c3cccs3)oc2NCCCN(C)C)cc1
  0.39, 1.66
O=C(COC(=O)C1CCN(S(=O)(=O)c2cccc3cccnc23)CC1)c1ccc(F)cc1
  1.44, -0.43
COc1ccccc1C(OC(=O)c1cccs1)C(=O)NCC1CCCO1 (centres undefined)
  0.03, -0.17
Cc1ccc2nc(-c3ccc(SCC(=O)Nc4nnc(C)s4)nc3)[nH]c2c1
  0.3, 2.98
Cc1ccoc1C(=O)NCCNC(=O)c1occc1C
  0.39, 0.1
Cc1nc2sc(C(c3ccc(Cl)cc3)N3CC(C)OC(C)C3)c(O)n2n1 (centres undefined)
  0.94, 0.19
O=C(/C=C/c1cccs1)Nc1nncs1
  0.13, 1.88
O=C(c1cccs1)N1CCN(S(=O)(=O)Cc2ccccc2)CC1
  1.07, -0.19
COc1ccc(NC(=O)C(C)N(c2ccc(C)cc2)S(C)(=O)=O)cc1 (centres undefined)
  1.32, -0.5
O=C(Nc1cnn(Cc2ccc(Cl)c(Cl)c2)c1)c1nc2ncccn2n1
  0.7, -1.4
CN(/N=C/c1ccc(O)cc1O)c1nc(-c2ccccc2)cc(-c2ccccc2)n1
  0.43, -0.76
CCCCn1c(SCC(=O)N2CCCCC2)nc2cc(S(N)(=O)=O)ccc21
  0.47, -0.02
CC1=C(C#N)C(NC(=O)c2cccc(Cl)c2)(C(F)(F)F)C(=O)N1 (centres undefined)
  0.61, -0.03
COc1cc2c(=O)n(CCC(=O)NCC3CCCO3)c(=O)n(CC(=O)Nc3ccc(F)cc3)c2cc1OC (centres undefined)
  1.14, -0.69
O=C(CS(=O)(=O)Nc1ccc(F)cc1Cl)Nc1ccc(F)cc1Cl
  2.64, -0.47
CCn1c(SCC(=O)N/N=C(\C)c2ccncc2)nnc1-c1ccc(C)cc1
  0.83, 0.01
O=C(COC(=O)/C=C/c1ccccc1)NNC(=O)c1ccc([N+](=O)[O-])cc1
  0.37, 0
Clc1cccc(CN2CCCCCCC2)c1Cl
  0.22, 0.33
Cc1ccc2nc(Nc3nc(CSc4nnc(C)s4)cc(=O)[nH]3)nc(C)c2c1
  0.47, 1.17
Cc1ccc(/C=C2/Sc3ccc(C(=O)NCc4ccccn4)cc3NC2=O)cc1
  1.17, -0.25
COC(=O)NNC(=S)NCc1ccccc1
  1.69, -0.3
COc1cccc(NC(=O)CN(c2ccc([N+](=O)[O-])cc2)S(=O)(=O)c2ccccc2)c1
  0.01, -0.37
CCOc1cc(NC(=S)NC)c(OCC)cc1NC(=O)c1ccco1
  0.09, 0.35
O=C(O)c1ccccc1-c1ccccc1C(=O)NCc1cccc(C(F)(F)F)c1
  0.26, 0.47
CC(C)(C)C(=O)Nc1ccc(Sc2ccc([N+](=O)[O-])cc2)cc1
  1.81, -1.06
Cn1c(N)c(C(=O)c2ccc(Cl)cc2)c(=O)n(C)c1=O
  1.14, -0.08
N#Cc1cnn(Cc2ccccc2)c1/N=C/N1CCOCC1
  0.16, -1.5
COc1ccc(NC(=O)/C(Cl)=C(/Cl)S(=O)Cc2ccccc2)cn1 (centres undefined)
  12.3*, 2.55*
CC(C)NC(=O)C(=O)c1cn(C)c2ccccc12
  0.65, 0.42
Cc1nnc(NC(=O)CCn2c(=O)oc3ccc(Cl)cc32)s1
  0.45, -1.17
Cc1cc(C)cc(C(=O)N2CCC(C(N)=O)CC2)c1
  0.79, 0.45
O=C(CN1CCC(NC(=O)C2CCCCC2)CC1)NCc1ccco1
  0.71, -0.09
COc1ccc(CCC(=O)Nc2cccc(Cl)c2)cc1
  1.1, -0.12
Cc1ccc2oc(C(=O)N(C)Cc3ccon3)c(C)c2c1
  1.27, 0.37
CCCOc1ccc(C2C3=C(Nc4nc(N)[nH]c(=O)c42)c2ccccc2C3=O)cc1 (centres undefined)
  1.16, 0.67
CCN(CC)c1ccc(/C=N/Nc2nc3ccccc3[nH]2)c(O)c1
  1.81, -1.2
CC(=O)Nc1ccc(-c2ccccc2)s1
  0.51, 0.09
O=C(Nc1ccc2c(c1)OCCO2)C(=O)NC1CC1
  1.38, -0.02
Clc1ccc(/C=N/Nc2ncnc3ccccc23)cc1Cl
  0.15, -1.56
COCCn1c(SCC(=O)c2ccc3c(c2)OCCO3)nnc1C(C)C
  0.66, -1.76
COc1cccc(CNc2ccc3[nH]c(=O)[nH]c3c2)c1OCc1ccccc1F
  5.09, -1.85
O=C(N/N=C/c1ccc2ncccc2c1)c1cccc([N+](=O)[O-])c1
  0.11, -1.59
Cc1ccc(Cl)cc1NC(=O)C1CCCN(S(=O)(=O)c2c(C)noc2C)C1 (centres undefined)
  0.23, 0.09
Cc1ccc(C)c(-n2c3nc(=O)n(C)c(=O)c-3cc3ccccc32)c1
  3.25, -1.61
CCCOc1c(OC)cc(Cl)cc1C1NC(=O)NC(C)=C1C(=O)NCc1ccccc1 (centres undefined)
  0.19, -0.14
Nc1ccc(NC(=S)Nc2ccccc2)cc1
  0.6, 2.47
NC(=O)C1CCCN(CC(=O)N2CCN(c3ccccc3)CC2)C1 (centres undefined)
  0.66, 0.08
Cc1ccc2c(c1)cc1c(=O)n(CC(=O)NCCCc3ccccc3)nc(C)n12
  0.43, 1.33
O=[N+]([O-])c1ccc(S(=O)(=O)NCCc2ccncc2)cc1
  0.27, 0.43
Cc1ccc(-c2nn(CC(=O)NN3CCOCC3)c(=O)c3ccccc23)cc1
  0.43, -1.99
COc1ccc(C2C(C(=O)O)CCC(=O)N2c2ccc(OC)cc2)cc1 (centres undefined)
  0.63, 0.76
CCOC(=O)N1CCN(CC(O)COc2ccc(OC)cc2C(C)(C)C)CC1 (centres undefined)
  1.22, -1.12
COc1ccccc1OCCOCCn1cnc2ccccc2c1=O
  0.95, 1.34

(list continues)
Second line of a record: KCNQ2 enhance, KCNQ2 enhance baseline
COc1ccc(NC(=O)CCN2C(=O)c3ccccc3S2(=O)=O)cc1
  0.65, -0.1
CC(C)Cc1ccc(/C(=N/O)C(=O)O)s1
  7.08*, 0.5*
CCc1nnc(NC(=O)c2ccc(S(=O)(=O)N3CCCCCC3)cc2)s1
  1.03, 0.41
COc1ccc(NC(=O)CNC(=O)c2ccc([N+](=O)[O-])cc2)cc1
  0.13, 0.21
Cc1cc(C(=O)N/N=C/c2ccc(N(C)C)cc2)c2ccccc2n1
  0.5, 0.07
CCOc1ccccc1-c1nc(C(N)=O)c2[nH]c(=O)n(-c3ccccc3)c2n1
  0.48, 0.25
CC1CCC(N(C(=O)c2csnn2)C(C(=O)NC(C)(C)C)c2cccnc2)CC1 (centres undefined)
  1, 0.12
Cc1c(-c2nc(-c3ccncc3)no2)cccc1[N+](=O)[O-]
  3.78, 0.19
CCOc1ccc(CN(C)C(=O)CCl)cc1
  0.02, -0.4
CCC(C(=O)NCC1CCCO1)n1nc(C)c2sc3ccccc3c2c1=O (centres undefined)
  0.02, 0.25
Cc1cnc(C(=O)N2CCc3c([nH]c4ccccc34)C2c2ccc(F)cc2)cn1 (centres undefined)
  2.4, 1.25
COc1ccc(/C=C2\SC(=S)N(CCC(=O)NCCc3ccc(O)cc3)C2=O)cc1
  0.67, -0.25
CCS(=O)(=O)N1CCN(c2ccnc3cc(Cl)ccc23)CC1
  1.65, 0.42
O=C(NCCNS(=O)(=O)c1ccccc1)c1cc(OCC(F)(F)F)ccc1OCC(F)(F)F
  0.05, -0.41
O=C(NCc1ccccn1)c1ccc(Cn2c(=S)[nH]c3ccc(Br)cc3c2=O)cc1
  0.02, 2.23
CN1CCN(Cc2nc3ccccc3c(=O)n2CC#N)CC1
  0.3, -0.08
Cc1cccc(N2C(=O)CSC2c2cccnc2)c1 (centres undefined)
  1.79, 0.04
Cc1ccccc1NC(=O)CCCC(=O)c1ccccc1
  0.65, -2.98
COCCN(Cc1ccc(F)cc1)C(=O)c1cc2ccccc2oc1=O
  0.49, 3.22
CC(=O)Nc1ccc(C(=O)OCC(=O)NC(=O)NC2CCCCC2)cc1
  0.03, 0.11
CCC(C)(C(=O)NC1CCCCC1)N(C(=O)CNC(C)=O)c1c(C)n(C)n(-c2ccccc2)c1=O (centres undefined)
  0.28, -0.01
O=C(O)c1cccc(NC(=O)c2ccc3c(c2)C(=O)N(c2cccc([N+](=O)[O-])c2)C3=O)c1
  0.55, 1.06
CCOC(=O)CSc1nc(C)c(C(=O)OCC)s1
  0.07, 1.03
Cn1cc(CN2CCc3sccc3C2)c(-c2ccccc2F)n1
  0.14, -0.44

Taken from above.
In KCNQ2 enhance, `Cc1ccc2oc(C(=O)N(C)Cc3ccon3)c(C)c2c1` is listed with 1.27
In KCNQ2 enhance, `O=C(NCCNS(=O)(=O)c1ccccc1)c1cc(OCC(F)(F)F)ccc1OCC(F)(F)F` is listed with 0.05

Profiles, quoted from the list. Values in the order: KCNQ2 enhance | KCNQ2 enhance baseline
COc1ccc(/C=C2\SC(=S)N(CCC(=O)NCCc3ccc(O)cc3)C2=O)cc1 across the screens: 0.67 | -0.25
CCOc1ccccc1-c1nc(C(N)=O)c2[nH]c(=O)n(-c3ccccc3)c2n1 across the screens: 0.48 | 0.25
